# total CFTR: compounds raising F508del-CFTR protein level – cell-based, HeLa F508del-CFTR, immunofluorescence, viability, primary screen (AID 1224863); HeLa F508del-CFTR, immunofluorescence total CFTR, 24 h; by the record results were divided by relative cell number; some inactives read as strong as hits; calls, or highest fold increase where a dose series was run; 10,000 compounds, 0.1% hits; in the data nearly all actives have a first-pass fold increase above 1.5; a few of its hits are not listed in these tables;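 note: total CFTR protein by anti-CFTR immunofluorescence in fixed cells; first pass at 25 µM or 10 µg/mL by library and series up to twice that; 1 = untreated cells; first-pass hits also needed half or more of the cells alive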
# total CFTR fold 25 µM: recorded beside total CFTR, whose call it bears; fold increase; measured here: primary screen single dose 25 uM; library dosed in µM
# total CFTR fold 10 ug/mL: also measured in total CFTR; calls as there; fold increase; measured here: primary screen 10 ug/mL
# total CFTR viability 25 µM: recorded beside total CFTR, whose call it bears; viability, %; measured here: primary viability 25 uM; library dosed in µM;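 0% = killed and 100% = untreated cells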
# total CFTR viability 10 ug/mL: second read-out of total CFTR, no call of its own (marks repeat the call); viability, %; measured here: primary viability 10 ug/mL;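 0% = killed and 100% = untreated cells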
# Active calls of the source: *; i = inactive; nt = no result given; & = joins results of further samples. Not all compounds are listed; count on the stated rates, not on these rows.
SMILES,total CFTR,total CFTR fold 10 ug/mL,total CFTR viability 10 ug/mL,others
O=C(CNC(=O)c1ccc(Br)o1)Nc1nc2c(s1)CCCCC2,i,1.14,88.0,
Cc1cc2oc(=O)cc(COC(=O)c3sc4ccccc4c3Cl)c2cc1C(C)C,i,1.07,115.0,
COc1cc(OC)c(OC)cc1CNc1ccc(C(F)(F)F)cn1,i,0.86,87.0,
Cc1cc(C(=O)N2CCN(S(=O)(=O)N(C)C3CCCCC3)CC2)nn1C(C)(C)C,i,1.03,91.0,
O=C(OCn1nnc2ccccc2c1=O)c1ccc(C(=O)c2ccccc2)cc1,i,0.94,84.0,
CN(Cc1cnn(-c2ccccc2)c1)Cn1[nH]c(C(C)(C)C)nc1=S,i,1.02,99.0,
O/C(=C/SC1=NCCN1)C12CC3CC(CC(C3)C1)C2,i,1.03,96.0,
CC(C)N(C)CCCNC(=O)Nc1ccc(I)cc1,i,0.97,101.0,
CN(Cc1ccc(Br)s1)C(=O)NCc1coc(-c2cccs2)n1,i,0.93,82.0,
FC(F)(F)CNC1CC1,i,1.04,105.0,
O=[N+]([O-])c1c(N2CCN(S(=O)(=O)c3ccc(F)c(Cl)c3)CC2)nc2ccccn12,i,0.92,97.0,
O=S(=O)(NCCSC1CCCC1)c1ccccc1Br,i,1.07,100.0,
CC(C)c1nc(SCC(=O)c2cccs2)n[nH]1,i,1.03,88.0,
C[C@H](CS)C(=O)N1CCC[C@H]1C(=O)O,i,nt,nt,total CFTR fold 25 µM=1.1&1.08;total CFTR viability 25 µM=83.0&101.0
Cc1cc(C(=O)COc2cc(C(F)(F)F)cc(C(F)(F)F)c2)c(C)n1-c1ccc2c(c1)OCO2,i,1.05,93.0,
CN(C)[C@@H]1C(=O)C(C(N)=O)=C(O)[C@@]2(O)C(=O)C3=C(O)c4c(O)ccc(Cl)c4[C@@H](O)[C@H]3C[C@@H]12,i,nt,nt,total CFTR fold 25 µM=0.96;total CFTR viability 25 µM=85.0
CCCCCCCCCCCCCCCC[N+](C)(C)CCN(Cc1ccc(OC)cc1)c1ncccn1,i,nt,nt,total CFTR fold 25 µM=0.6;total CFTR viability 25 µM=10.0
COCC(C)n1c(C)cc(C(=O)CSc2nnc(-c3cc4c(s3)CCC(C)C4)o2)c1C (centres undefined),i,1.06,91.0,
CCC(C)(C)NC(=O)CN1CCN(S(=O)(=O)N2CCOCC2)CC1,i,1.08,95.0,
COC(=O)c1occc1CSc1nc(C2CC2)nc2c1c(=O)[nH]c(=O)n2C1CC1,i,0.94,86.0,

# Six structures from above, arranged by count of non-hydrogen atoms, smallest number first.
SMILES,total CFTR,total CFTR fold 10 ug/mL,total CFTR viability 10 ug/mL,others
CC(C)c1nc(SCC(=O)c2cccs2)n[nH]1,i,1.03,88.0,
O=S(=O)(NCCSC1CCCC1)c1ccccc1Br,i,1.07,100.0,
O=[N+]([O-])c1c(N2CCN(S(=O)(=O)c3ccc(F)c(Cl)c3)CC2)nc2ccccn12,i,0.92,97.0,
COCC(C)n1c(C)cc(C(=O)CSc2nnc(-c3cc4c(s3)CCC(C)C4)o2)c1C (centres undefined),i,1.06,91.0,
Cc1cc(C(=O)COc2cc(C(F)(F)F)cc(C(F)(F)F)c2)c(C)n1-c1ccc2c(c1)OCO2,i,1.05,93.0,
CCCCCCCCCCCCCCCC[N+](C)(C)CCN(Cc1ccc(OC)cc1)c1ncccn1,i,nt,nt,total CFTR fold 25 µM=0.6;total CFTR viability 25 µM=10.0

# The listing picks up, starting two compounds before the break.
SMILES,total CFTR,total CFTR fold 10 ug/mL,total CFTR viability 10 ug/mL,others
CCC(C)(C)NC(=O)CN1CCN(S(=O)(=O)N2CCOCC2)CC1,i,1.08,95.0,
COC(=O)c1occc1CSc1nc(C2CC2)nc2c1c(=O)[nH]c(=O)n2C1CC1,i,0.94,86.0,
C=CCc1ccc(O)c(OC)c1,i,nt,nt,total CFTR fold 25 µM=0.85;total CFTR viability 25 µM=96.0
CCN(CC(=O)NC(C)(C)C)c1nc2sccn2c1[N+](=O)[O-],i,1.06,79.0,
C#C[C@]1(O)CCC2C3CCc4cc(OC)ccc4C3CC[C@@]21C (some centres undefined),i,nt,nt,total CFTR fold 25 µM=1.13;total CFTR viability 25 µM=102.0
CN(C)C(=O)C1CN(C(=O)c2cc(Cl)c3c(c2)OCCO3)c2ccccc2O1 (centres undefined),i,1.03,93.0,
COCCNC(=O)CN1C(=O)NC2(CCCCC2)C1=O,i,1.05,82.0,
COc1ccc(-c2nc(C(=O)OC3CCOC3=O)cs2)cc1OC (centres undefined),i,0.98,84.0,
CN(Cc1cnn(C)c1)Cn1[nH]c(C(C)(C)C)nc1=S,i,0.98,104.0,
COc1ccc(-c2nc(CSc3nnnn3C3CCCCC3)co2)cc1,i,0.79,84.0,
COC(=O)C1(NS(=O)(=O)c2cc(OC)c(OC)cc2Br)CCCCC1,i,1.08,90.0,
CN(C)S(=O)(=O)c1cccc(S(=O)(=O)Nc2cccc3ccccc23)c1,i,1.1,77.0,
CC(NC(=O)Cn1c(=O)/c(=C/c2ccsc2)s/c1=C\C(=O)C(C)(C)C)C1CC2CCC1C2 (centres undefined),i,1.1,106.0,
CCOC(=O)[C@H](CCc1ccccc1)N[C@@H](C)C(=O)N1[C@H](C(=O)O)C[C@@H]2CCC[C@@H]21,i,nt,nt,total CFTR fold 25 µM=1.04&1.12&1.08;total CFTR viability 25 µM=91.0&91.0&87.0
CS(=O)(=O)N1CCC(NC(=O)NCc2ccc3c(c2)OCCO3)CC1,i,0.95,102.0,
O=C(CN1CCN(C(=O)C23CC4CC(CC(C4)C2)C3)CC1)NCc1ccco1,i,1.08,97.0,
O=C1c2cccc([N+](=O)[O-])c2C(=O)N1CN(C1CCCC1)C1CC1,i,0.86,101.0,
CN(Cc1nccn1C(F)F)c1nc(CN2CCOCC2)nc2sc3c(c12)CCC3,i,1.01,89.0,
CCSc1nnc(SCc2nnc(-c3cccc([N+](=O)[O-])c3)o2)s1,i,1.17,97.0,
O=S(=O)(N1CCCCCC1)N1CCN(c2ccnc3cc(Cl)ccc23)CC1,i,0.89,102.0,
CC1(C)CC(=O)C=C(NC(CO)C(O)c2ccc([N+](=O)[O-])cc2)C1 (centres undefined),i,0.99,108.0,
Cc1cc(C(=O)CSc2nnnn2C(C)(C)C)c(C)n1C,i,1.11,88.0,
COc1cc(-c2nnc(SCC(=O)c3c(N)n(C)c(=O)n(C)c3=O)o2)cc(OC)c1OC,i,0.98,87.0,
O=C(NC1CC1)N1CCN(S(=O)(=O)c2ccc3c(c2)CCC3)CC1,i,1,88.0,
COCC(C)NC(=O)c1sccc1C (centres undefined),i,0.9,102.0,
O=C1NC(Cc2ccccc2)(Cc2ccccc2)C(=O)N1CN1CCCC(O)C1 (centres undefined),i,1.09,102.0,
O=C(c1ccccc1)C(Sc1nnnn1CC1CCCO1)c1ccccc1 (centres undefined),i,0.94,99.0,
Cc1ccc2oc(=O)n(Cc3ccc(Br)cc3F)c2c1,i,0.9,82.0,
O=C(NCCSC1CCCC1)c1cnn2cccnc12,i,1.14,100.0,
CCOC(=O)C1=C(COC(=O)c2ccc(N3CCOCC3)c([N+](=O)[O-])c2)NC(=O)NC1C (centres undefined),i,0.95,105.0,
CCN(Cc1cccs1)Cn1nc(-c2cccs2)oc1=O,i,1.09,108.0,
C=CCn1c(SCc2nccn2C(F)F)nc2sccc2c1=O,i,0.98,92.0,
CN1CCC(=C2c3ccccc3C=Cc3ccccc32)CC1,i,nt,nt,total CFTR fold 25 µM=1.07&1.07;total CFTR viability 25 µM=85.0&99.0
Cc1cc(C)c2c(-c3ccccc3)nc(SCc3cc(C)on3)n2n1,i,0.94,93.0,
C=CCn1c(SCc2csc(-c3ccccc3)n2)nnc1C1COc2ccccc2O1 (centres undefined),i,1,102.0,
CCS(=O)(=O)N1CCC(NC(=O)C2=Cc3cc(Br)ccc3OC2)CC1,i,1.03,101.0,
Cc1nnc(COC(=O)c2ccc3c(c2)CCC(=O)N3)o1,i,1,106.0,
CN(C)c1ccc(C(=C2C=CC(=[N+](C)C)C=C2)c2ccc(N(C)C)cc2)cc1,i,nt,nt,total CFTR fold 25 µM=0.59&0.56;total CFTR viability 25 µM=28.0&31.0
COc1cc(CSc2nnc(C)n2C)c([N+](=O)[O-])cc1OC(F)F,i,0.99,92.0,
O=c1oc2ccc([N+](=O)[O-])cc2n1CN1CCN(c2cccc(Cl)c2)CC1,i,0.77,82.0,
CO[C@@H]1[C@@H](OC(N)=O)[C@@H](O)[C@H](Oc2ccc3c(O)c(NC(=O)c4ccc(O)c(CC=C(C)C)c4)c(=O)oc3c2C)OC1(C)C,i,nt,nt,total CFTR fold 25 µM=1.05&0.95;total CFTR viability 25 µM=90.0&92.0
CC(C)=CC(=O)NCCNC(=O)c1ccco1,i,1.24,104.0,
COCCN1C(=O)NC(c2ccc(C)cc2C)C(C(=O)OC)=C1C (centres undefined),i,1.04,102.0,
O=[N+]([O-])c1cccnc1N1CCN(S(=O)(=O)c2cccnc2)CC1,i,0.99,97.0,
O=C(Nc1ccc(Br)c(C(F)(F)F)c1)N1CCCC1,i,0.79,71.0,
COCCN1C(=O)NC(c2ccc([N+](=O)[O-])cc2)C(C(=O)OC)=C1C (centres undefined),i,1.1,98.0,
Cc1sc2nc(C(C)Sc3nc4sc5c(c4c(=O)n3C3CCCCC3)CCCC5)[nH]c(=O)c2c1C (centres undefined),i,0.97,96.0,
Cc1cc(C)n2c(SCc3cc(-c4ccccc4)on3)nnc2n1,i,1.06,97.0,
Brc1ccc(-c2nnc(CSc3nc4ccccc4o3)o2)o1,i,1.13,104.0,
O=C(Nc1ccc(-n2cnnn2)cc1)C1=COCCO1,i,1.04,83.0,
CC1CN(Cn2ncc(Cl)c(Cl)c2=O)CC(C)O1 (centres undefined),i,0.88,81.0,
CO[C@@]1(NC(=O)C2SC(=C(C(N)=O)C(=O)O)S2)C(=O)N2C(C(=O)O)=C(CSc3nnnn3C)CSC21 (some centres undefined),i,nt,nt,total CFTR fold 25 µM=1.16;total CFTR viability 25 µM=96.0

# Next part.
SMILES,total CFTR,total CFTR fold 10 ug/mL,total CFTR viability 10 ug/mL,others
O=C1c2ccc([N+](=O)[O-])cc2C(=O)N1Cc1cc(F)cc2c1OCOC2,i,1.02,75.0,
CCCn1c(N)c(N(CCOC)C(=O)C(F)(F)F)c(=O)n(Cc2nc(C)no2)c1=O,i,0.98,91.0,
CC1CN(S(=O)(=O)N2CCN(C(=O)c3ccc(=O)[nH]n3)CC2)CC(C)O1 (centres undefined),i,0.9,90.0,
COc1cccc(OC)c1C(=O)N[C@@H]1C(=O)N2[C@@H]1SC(C)(C)[C@@H]2C(=O)O,i,nt,nt,total CFTR fold 25 µM=1.04;total CFTR viability 25 µM=104.0
COc1cc(-c2cc(/C=C/c3ccc(SC)cc3)c(C#N)c3nc4ccccc4n23)cc(OC)c1OC,i,1.15,108.0,
NS(=O)(=O)c1cc2c(cc1Cl)NC(C(Cl)Cl)NS2(=O)=O (centres undefined),i,nt,nt,total CFTR fold 25 µM=1.18&1.08;total CFTR viability 25 µM=85.0&99.0
CCCN1C(=O)C(=O)N(CN2CCc3sccc3C2)C1=O,i,1.03,98.0,
COc1cc(OC)c(OC)cc1CNCc1cc(Cl)ccc1OC(F)F,i,0.95,85.0,
O=C(Nc1nccs1)C1CCCNC1 (centres undefined),i,0.9,90.0,
O=S(=O)(Nc1ccc(Cl)c2cccnc12)c1c(F)cc(F)cc1Br,i,1.33,79.0,
Cc1c(C(=O)OCc2cc(=O)n3c(n2)sc2ccccc23)oc2ccc(Br)cc12,i,1.19,82.0,
Cc1cc(S(=O)(=O)NC(C)c2ccc(S(C)(=O)=O)cc2)c(C)s1 (centres undefined),i,1.13,92.0,
Cn1c(=O)c2c(ncn2CC(O)COc2cccc(Br)c2)n(C)c1=O (centres undefined),i,0.95,84.0,
O=C(CNc1ncnc2sc3c(c12)CCC3)NC1CC1,i,0.98,89.0,
COc1cc(CN2C(=O)NC(C)(c3ccc4c(c3)CCC4)C2=O)c(OC)cc1Br (centres undefined),i,0.73,90.0,
O=C(O)c1ccc(Oc2ccc(Br)cc2)c(F)c1,i,0.95,98.0,
CC(C)CN(C[C@@H](O)[C@H](Cc1ccccc1)NC(=O)O[C@H]1CCOC1)S(=O)(=O)c1ccc(N)cc1,i,nt,nt,total CFTR fold 25 µM=1.01;total CFTR viability 25 µM=97.0
CCCCCN(CCCCC)C(=O)C(CCC(=O)O)NC(=O)c1ccc(Cl)c(Cl)c1 (centres undefined),i,nt,nt,total CFTR fold 25 µM=1.1&1.05;total CFTR viability 25 µM=91.0&90.0
CN(C)C(CNS(=O)(=O)C1=Cc2ccccc2CC1)C1CC1 (centres undefined),i,1.02,97.0,
CC(C)(C)c1cc(N)n(-c2cccc(Cl)c2)n1,i,0.99,87.0,
C/C=C/Cn1c(SC/C=C(/C)Cl)nc2c1c(=O)[nH]c(=O)n2C,i,1,85.0,
CCOc1ccc(OCCOC(=O)C23CC4CC(CC(O)(C4)C2)C3)cc1,i,0.98,101.0,
CC(C)=CC1C(C(=O)Nc2nc3c(s2)CCC3)C1(C)C (centres undefined),i,0.91,84.0,
CC1CCCCC12NC(=O)N(CC(=O)NC1(C#N)CCCCC1)C2=O (centres undefined),i,1.07,98.0,
C#CCN1CCC(C(=O)NC2CCN(C(=O)C3CCCCC3)CC2)CC1,i,1.01,99.0,
O=C(OCc1cc(Cl)cc2c1OCOC2)C12CC3CC(CC(Cl)(C3)C1)C2,i,1.04,93.0,
CC1CNc2c(cccc2S(=O)(=O)N[C@@H](CCCN=C(N)N)C(=O)N2CC[C@@H](C)C[C@@H]2C(=O)O)C1 (some centres undefined),i,nt,nt,total CFTR fold 25 µM=0.99;total CFTR viability 25 µM=115.0
CC(C)NC(=O)CSc1nnnn1C1CCCCC1,i,1,104.0,

# From PubChem BioAssay
